Screening data as filed in PubChem.
HPGD inh: inhibitors of human 15-hydroxyprostaglandin dehydrogenase (HPGD). purified HPGD, NADH fluorescence kinetic, PGE2 substrate. P15428. 4.3% of 150,000 active. Potency, µM, for the others: top-dose activity change, negative = inhibition, usual class: inhibitors; active = well fitted inhibition curve with a large enough effect (not every such curve was filed as active); inconclusive = small, poorly fitted or top-dose-only effect, or another doubt; inactive = no such curve, though single readings can be large or run the other way;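 also: top concentration of the series not given in the record; plate controls included wells without enzyme; inactives centre near -10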
Target sequence (P15428 whole entry, looked up): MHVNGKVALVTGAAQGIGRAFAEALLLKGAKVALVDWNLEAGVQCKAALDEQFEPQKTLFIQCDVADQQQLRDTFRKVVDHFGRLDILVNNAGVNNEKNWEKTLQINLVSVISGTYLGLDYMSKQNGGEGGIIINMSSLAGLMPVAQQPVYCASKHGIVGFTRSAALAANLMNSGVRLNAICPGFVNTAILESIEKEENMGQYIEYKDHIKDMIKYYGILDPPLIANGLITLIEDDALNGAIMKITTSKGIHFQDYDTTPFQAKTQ
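20 nM HPGD preincubated 15 min at room temperature with compound in 50 mM Tris-HCl pH 8, 0.01% Tween 20. Started with 1 mM NAD+ and 30 uM prostaglandin E2; NADH fluorescence (360/450 nm) read 5 times over 30-s intervals, last minus first.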
Starred values were filed as active, the others as inactive; ? = inconclusive. % is scaled to controls: 0 for no effect and ±100 for the full control effect; potency is read from the fitted curve at half-maximal effect. An excerpt; rates above refer to the full screens.

Molecule	HPGD inh
COc1ccc(NC(=O)c2ccc(-c3ccccc3Cl)o2)cc1	-4.1%
Cc1ccc(C2CC(C(F)(F)F)n3nc(C(=O)NCc4c(C)nn(C)c4C)c(Cl)c3N2)cc1 (configuration not stated)	-11.2%
CCCN1CCC(NC(=O)Nc2ccc(F)cc2F)CC1	-3.1%
Clc1ccc2c(c1)N(CCCN1CCCC13CCCCC3)c1ccccc1S2	-6.5%
Cc1cc2nc(-c3ccc(SCC(=O)N4CCOCC4)nc3)[nH]c2cc1C	?
N#Cc1c(NC(=O)CSc2nc(N)cc(=O)[nH]2)sc2c1CCCCCC2	-5.7%
O=C(/C=C/c1ccc(F)cc1)N1CCN(c2ccccn2)CC1	-2.6%
CCNC(=O)N1C(CC(=O)OCC)C(=O)NC2CCCCC21 (configuration not stated)	-8.0%
CCOC(=O)C1C(=O)OC2(CCOC(C)(C)C2)C1C(=O)OCC (configuration not stated)	-10.2%
COc1ccc(-n2nc3c(c2NC(=O)C24CC5CC(CC(C5)C2)C4)CS(=O)C3)cc1 (configuration not stated)	-3.0%
COc1ccc(CNCC(O)(c2ccc(Cl)cc2)c2ccc(Cl)cc2)cc1	-3.9%
CC(C)OC(=O)c1c(N)n(CCCN2CCOCC2)c2nc3ccccc3nc12	?
Cc1ccc(NC(=O)CN(C)S(=O)(=O)c2cccc3cccnc23)cc1	-17.7%
COC(=O)c1cc(F)c(-n2cncn2)c(F)c1	-0.5%
CN(C=O)CP(=O)(O)CN1CCCCC1	-7.6%
N#Cc1c(Cl)c(Cl)c2nnc(-c3ccc(Br)cc3)n2c1Cl	12.6µM*
O=c1c(CCc2ccccc2)nc2cnc(N3CCNCC3)nc2n1CCc1ccccc1	?
Oc1oc(-c2ccccc2)nc1C=Nc1cccc2ccccc12	-23.5%
COCCNC(=O)Cn1nc(C(F)(F)F)c(Br)c1C	-5.0%
O=C(CSc1ccccc1)N1CCN(c2ccccc2)CC1	?
COc1cc(NC(=O)Cc2c(C(=O)O)[nH]c3ccccc23)cc(OC)c1OC	-11.4%
Cc1nnnn1/C(=C\c1ccccc1)C(=O)OCC(=O)N1CC2(C)CC1CC(C)(C)C2 (configuration not stated)	-7.1%
C=CC1=C2C=C(C3CC3)N(CCOC)C=C2C(=O)C(C)(OC(=O)c2ccco2)C1=O (configuration not stated)	-8.6%
CCOC(=O)CSc1cn2c(n1)CCC2	?
O=C(CSc1nnnn1C1CCCCC1)Nc1nc2c(s1)CCCC2	-6.7%
COC(=O)C1=C(C(=O)OC)[C@@H]2N(Cc3ccccc3)c3ccccc3[C@@]23C[C@@H](C(=O)OC)N(C(=O)COCc2ccccc2)C3=N1	-5.6%
COc1ccc(S(=O)(=O)NCc2ccncc2)cc1OC	-5.8%
Cc1ccc(C)c(S(=O)(=O)NCC(=O)NCc2ccco2)c1	-4.7%
C/C=C(\C)C(=O)O[C@H]1C[C@@]2(C)CCC(C(C)C)C2(O)CC[C@@]1(C)O (some centres not stated)	-1.8%
O=C(c1ccco1)N1CCC[C@@]2(CCN(c3ccncc3)C2)C1	-12.5%
CCCCn1nnnc1NCc1ccc(C)s1	-2.6%
CN1Cc2cc(C(=O)c3ccccc3O)cnc2NC1=O	25.1µM*

HPGD inh, hit marks shown above.
Molecule	HPGD inh
N#Cc1c(Cl)c(Cl)c2nnc(-c3ccc(Br)cc3)n2c1Cl	12.6µM*
CN1Cc2cc(C(=O)c3ccccc3O)cnc2NC1=O	25.1µM*

Other results.
Molecule	HPGD inh
CCOC(=O)C1CCCN(C(=O)c2ccccc2SCCOC)C1 (configuration not stated)	-3.4%
CCC(C)(C)NC(=O)C(c1cccs1)N(CC1CCCO1)C(=O)Cn1nnc2ccccc21 (configuration not stated)	-7.3%
N#CCOc1nc(N2CCCC2)nc(N2CCCC2)n1	-9.7%
CCCc1nnc(SCC(=O)N2CCCCC2)n1CCCOC	-10.8%
COc1cccc(CNCC(O)(c2ccc(Cl)cc2)c2ccc(Cl)cc2)c1	-0.6%
COc1ccc(C=O)cc1COc1ccc(C)cc1[N+](=O)[O-]	-22.6%
Cc1cccc(NC(=S)Nc2c(C)n(C)n(-c3ccccc3)c2=O)c1C	-5.9%
O=C(c1cccnc1)N1CCN(CCCc2ccccc2)CC1	1.1%
CCNC(=O)c1sc(=S)n(-c2ccc(C)cc2)c1N	35.5µM*
COc1cccc(NC(=O)C(C#N)Cc2ccncc2)c1 (configuration not stated)	-0.7%
CCOc1ccc(NC(=O)N2CCC(NC(=O)c3ccco3)CC2)cc1	-12.5%
Nc1nnn(Cc2ccccc2)n1	-11.1%
CC1(c2ccc([N+](=O)[O-])cc2)CC(C)(C)N(C(=O)c2ccccc2)c2ccccc21 (configuration not stated)	-5.0%
CC(C)c1ccccc1NC(=S)NC(C)c1ccccc1 (configuration not stated)	1.3%
O=C(c1cc2c(s1)-c1ccccc1S(=O)(=O)C2)N1CCN(Cc2ccccc2)CC1	-17.9%
CCCCCn1c(CNC(=O)CCC)nc2ccccc21	-8.7%
COc1ccc(C(C)NC(=O)c2ccccc2Cl)cc1OC (configuration not stated)	-16.0%
O=C(c1cc(-c2cccs2)on1)N1CCCCC1	1.78µM*
O=S(=O)(Nc1ccc(O)cc1)c1cccc2cccnc12	-19.4%
CCOC(=O)CNS(=O)(=O)c1cc(-c2n[nH]c(=O)c3ccccc23)ccc1C	3.55µM*
Cc1ccc(SC(C)c2nc(-c3ccccc3)no2)cc1 (configuration not stated)	-17.7%
Cc1nc(NC(=O)CSc2nnc(C)n2CC2CCCO2)sc1C (configuration not stated)	-14.0%
CCOC(=O)c1[nH]cc(-c2ccccc2)c1N1CCOCC1	3.98µM*
CCCOc1ccc(NC(=O)CC2C(=O)N(Cc3ccccc3)C(=S)N2Cc2cccs2)cc1 (configuration not stated)	-17.1%
CCCCc1nc(NCc2ccccc2)c(C#N)c2c1CCCC2	?
CCC12CN(C(=O)c3ccc(C)cc3)CC(CC)(CN(C(=O)c3ccc(C)cc3)C1)C2=O	-2.4%
c1ccc2sc(N3CCN(Cc4ccc5c(c4)OCO5)CC3)nc2c1	-6.5%
COC(/C=C/Nc1ccc(C)cc1)=C(C#N)C#N	-9.9%
CCn1ncc(/C=N\NC(=O)c2cc(-c3ccc(C)cc3C)nc3ccccc23)c1C	-11.2%
CN(C)S(=O)(=O)c1ccc(C(=O)NNc2nc(-c3ccccc3)c3cc(Br)ccc3n2)cc1	-28.4%
C=CCn1c(SCC(=O)Nc2c(C)n(C)n(-c3ccccc3)c2=O)nc2scc(-c3ccccc3)c2c1=O	-6.5%
CCN(C(=O)CSc1nnnn1-c1ccccc1)c1c(N)n(Cc2ccccc2)c(=O)[nH]c1=O	-2.6%
O=S(=O)(Nc1nccs1)c1ccc(Nc2nnc(-c3ccccc3)c3ccccc23)cc1	-1.0%
COc1cccc(CNC(=O)C2CCN(S(=O)(=O)N3CCCC3)CC2)c1	-4.8%
CC(C)Cn1c(N)c(C(=O)NCC2CCCO2)c2nc3ccccc3nc21 (configuration not stated)	?
Cc1ccsc1C(=O)OCC(=O)Nc1c(Cl)cccc1C(F)(F)F	?
CCc1ccc(-c2nc(CN3CCC(C(=O)NCc4ccc(F)cc4)CC3)c(C)o2)cc1	-8.6%
Cc1ccccc1NCC(=O)N/N=C/c1c(C)c(C(=O)c2ccc(Cl)cc2)n2ccccc12	-23.1%
Cc1ccc(NC(=O)CSC2=C(C#N)C(c3ccco3)C3=C(CC(C)(C)CC3=O)N2)cc1 (configuration not stated)	-9.9%
Cn1cc([N+](=O)[O-])c(C(=O)Nc2cnn(Cc3ccc(F)cc3)c2)n1	-14.7%

Other records
| structure | HPGD inh |
| --- | --- |
| C[C@H](Oc1ccccc1)C(=O)N[C@@H]1C(=O)N2[C@@H]1SC(C)(C)[C@@H]2C(=O)O | -3.1% |
| CCCCCCCC(=O)NNC(=O)c1ccc([N+](=O)[O-])cc1 | -1.9% |
| CCOc1cc(C(=O)N(C)c2ccccc2)cc(OCC)c1OCC | -1.5% |
| CCOP(=O)(OCC)C(NC(=O)C(F)(F)F)c1ccccc1 (configuration not stated) | -8.2% |
| COc1cc(/C=C2/SC(=S)N(CC(=O)NC(C)(C)C)C2=O)cc(OC)c1OC | -18.9% |
| COc1cc(/C=C2\CC/C(=C\c3cc(OC)c(O)c(OC)c3)C2=O)cc(OC)c1O | ? |
| COC(=O)CNc1n[nH]c(=S)[nH]c1=O | -5.9% |
| COc1ccc(Cn2nnnc2C(CC(C)C)N2CCN(c3ccccc3)CC2)cc1 (configuration not stated) | -8.8% |
| Cn1c(N)c(C(=O)COC(=O)c2cccs2)c(=O)n(C)c1=O | -11.0% |
| Cc1nnc(NC(=O)C2C3C=CC(O3)C2C(=O)O)s1 (configuration not stated) | -12.9% |
| CCC(=O)NC(Nc1cc(C)ccn1)(C(F)(F)F)C(F)(F)F | -15.5% |
| Cc1nc(NC(=O)COC(=O)C(NC(=O)c2ccco2)C(C)C)c(Cl)cc1Cl (configuration not stated) | -10.7% |
| Clc1ccc(Cn2ccc(-c3ccc4c(c3)OCO4)n2)cc1Cl | -23.4% |
| CCc1cc2c(=O)n(Cc3ccco3)c(SCC(=O)N3CCCc4ccccc43)nc2s1 | -25.5% |
| Cc1ccc(C2/C(=C(/O)c3ccccc3)C(=O)C(=O)N2CCN2CCOCC2)o1 (configuration not stated) | -2.5% |
| O=C(CCCN1C(=O)c2ccccc2C1=O)Nc1ccc(Br)cn1 | 0.1% |
| CCOC(=O)c1ccc(NC(=O)COc2ccc(-n3cnnn3)cc2)cc1 | -13.0% |
| O/N=C(/Cc1ccccn1)c1ccccc1 | -9.5% |
| CC(C)Sc1cc(N2CCCC2)nc(-c2ccccc2Cl)n1 | -9.0% |
| CCCCC/C=C\C[C@@H]1O[C@H]1C(O)/C=C\C/C=C\CCCC(=O)O (some centres not stated) | -2.4% |
| N#C/C(=C\Nc1ccccc1O)c1nc2ccccc2o1 | -29.4% |
| CCOC(=O)C(CC(C)C)CP(=O)(O)CNC(=O)OCc1ccccc1 (configuration not stated) | 0.4% |
| Fc1ccc(-n2[nH]nnc2=S)cc1N1CCCC1 | 17.8µM* |
| Cc1sc(NC(=S)NC(=O)CCc2ccccc2)c(C(N)=O)c1C | -14.6% |
| Cc1cc(NO)c(C(C)C)cc1N=O | -14.6% |
| CC1CC(Nc2cccc(O)c2)=CC(=O)O1 (configuration not stated) | -2.8% |
| CCOc1ccc(S(=O)(=O)Nc2cc(OC)ccc2OC)cc1 | -9.0% |
| O=C(O)[C@@H](O)[C@@H](O)[C@@H](O)[C@@H](O)c1nc2ccccc2s1 | 3.55µM* |
| O=c1[nH]c(-c2ccc(Cl)cc2)nc2c1cnn2-c1ccccc1 | ? |
| O=C/C(=C\Nc1ccc(Cl)cn1)c1nc2cc(Cl)ccc2o1 | -5.5% |
| CCOc1ccc(S(=O)(=O)N2CCCCCC2)cc1 | -17.5% |
| COC(=O)C1=C(C)NC(=O)/C1=C\c1cccs1 | -1.4% |

Pulled by compound from above (three):
| structure | HPGD inh |
| --- | --- |
| O=c1[nH]c(-c2ccc(Cl)cc2)nc2c1cnn2-c1ccccc1 | ? |
| Cc1cc(NO)c(C(C)C)cc1N=O | -14.6% |
| CCOc1ccc(S(=O)(=O)Nc2cc(OC)ccc2OC)cc1 | -9.0% |

3 entries out of the list above, ordered by the value under HPGD inh, largest number first.
| structure | HPGD inh |
| --- | --- |
| COC(=O)C1=C(C)NC(=O)/C1=C\c1cccs1 | -1.4% |
| O=C/C(=C\Nc1ccc(Cl)cn1)c1nc2cc(Cl)ccc2o1 | -5.5% |
| Cc1cc(NO)c(C(C)C)cc1N=O | -14.6% |

Further compounds
| structure | HPGD inh |
| --- | --- |
| BrC1C(Br)C(Br)C(Br)C(Br)C1Br (configuration not stated) | -24.5% |
| O=C(Cn1nc(C(F)(F)F)c2c1CCC2)NC1CCCCC1 | -9.5% |
| CCN1CCN(C(=O)c2cc3cc4ccc(OC)cc4nc3s2)CC1 | ? |
| COc1cc(NC(=O)c2ccco2)c(C(=O)OCC(=O)c2c[nH]c3ccccc23)cc1OC | ? |
| O=C(COc1cccc(Cl)c1)N/N=C\c1cc2ccccc2nc1Cl | ? |
| CN(/N=C/C=C/c1ccccc1)c1cc(=O)n(C)c(=O)[nH]1 | ? |
| COC(=O)c1sc2nc(-c3ccco3)ccc2c1N | ? |
| Cc1cc(Cl)ccc1OC(C)C(=O)NCCCCc1ccccc1 (configuration not stated) | -3.9% |
| CCCCCn1c(CCC(=O)Oc2ccccc2OC)nc2c1c(=O)[nH]c(=O)n2CCCC | -7.1% |
| CS(=O)(=O)N1CCC(C(=O)NCc2ccc(F)cc2Cl)CC1 | -1.6% |
| O=C(Nc1ccc(Cl)cc1)C1C2CCC3C(CCC21)C3(Cl)Cl (configuration not stated) | -5.5% |
| CCOc1ccccc1CN1C(=O)NC(C)(c2ccccc2)C1=O (configuration not stated) | -22.8% |
| CSc1ccc(S(=O)(=O)N2CCN(Cc3ccc4c(c3)OCO4)CC2)cc1 | -3.3% |
| CC(C)Oc1ccc(OCCNC2CCCC2)cc1 | -8.9% |
| Cc1c(-n2cc(C(=O)c3cc(Cl)ccc3O)cc(C#N)c2=O)c(=O)n(-c2ccccc2)n1C | -7.3% |
| Cc1nn(-c2ccccn2)c2nc(-c3cccs3)cc(C(=O)NCc3ccco3)c12 | ? |
| CC(=O)N1CCC2(CCCN(c3ccccc3)C2)CC1 | -10.0% |
| COc1ccc(Cc2nnc(N/N=C/c3ccc(O)cc3O)[nH]c2=O)cc1OC | 31.6µM* |
| O=C(Nc1ccc2c(c1)CCC2)C1CCN(c2ncccn2)CC1 | -19.6% |
| C/C(Cc1ccccc1)=N\NC(=O)CNC(=O)c1cccc(Br)c1 | -6.6% |
| COC(=O)/C=C/c1ccc(OC(=O)OC)c(OC(=O)OC)c1 | 0.0% |
